HSV augment = enhancers of HSV replication in host cells, fold increase, host cell viability. HSV replication augmentation in cells. maximum fold increase. 220,000 compounds, 0.005% hits. AID 1956, 2009;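 active = peak rise of 1.5-fold or more in the series; inconclusive = self-fluorescent or not available for retest; tested in PC3 cells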;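 note: first round at 10 µM; read as green reporter fluorescence; hits show the peak of a series up to 25 µM; 1 = signal of infected wells without compound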
INS promoter inh = inhibitors of insulin promoter-driven GFP, primary screen, imaging, TRM-6 cells (human fetal islet line), eGFP reporter, cell count | 130,000 compounds, 0.9% hits | inhibition, % at 2 µM | reporter expression induced with tamoxifen;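 active = inhibition above the mean plus 3 SD, with well images judged a real hit on visual review, cut at about 60% in these data, passing the limit was not always enough; inconclusive = inhibition over the cutoff but images rejected on review; inactive = inhibition not above the cutoff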
GALR2 ag = GALR2 receptor agonists, primary screen, cell-based | Galanin receptor type 2 (Homo sapiens), O43603 | GALR2-expressing cells, agonist activation read-out | activation, %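 (tested at 5 µM)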 | 140,000 compounds, 0.48% hits | AID 803, 2007;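 active = above mean plus 3 SD of all compounds, about 5% in these data, not always enough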;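 note: 0% = vehicle buffer wells and 100% = reference agonist at full effect; tested in CHO reporter cells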
RGS16-Gao = modulators of RGS16 binding to Galphao, primary screen, biochemical, human proteins, multiplexed bead flow cytometry; bead-based flow cytometry RGS16-Galphao binding, fluorescence; actives lie on both sides; AID 1441, 2008; Regulator of G-protein signaling 16 (Homo sapiens) + Guanine nucleotide-binding protein …; 220,000 compounds, 0.38% hits; binding response (% of control), % at 10 µM;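 active = below 25% or above 175%, edge rows of some plates excepted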;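 note: Galphao activated by GDP with aluminum fluoride before binding; 100% = wells without compound and 0% = beads without RGS; some results beyond the cut were filed as inactive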
PKD1 kinase inh = inhibitors of human PKD1 kinase, biochemical, fluorescence polarization; 200,000 compounds, 0.056% hits; Serine/threonine-protein kinase D1 (Homo sapiens), Q15139; PKD1 kinase fluorescence polarization assay; inhibition, %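 (about 10 µM by stock and volumes)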; AID 797, 2007;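 active = inhibition of 50% or more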;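 note: controls were vehicle for no effect and a reference inhibitor for full effect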
Target sequence (Q15139 whole entry, looked up): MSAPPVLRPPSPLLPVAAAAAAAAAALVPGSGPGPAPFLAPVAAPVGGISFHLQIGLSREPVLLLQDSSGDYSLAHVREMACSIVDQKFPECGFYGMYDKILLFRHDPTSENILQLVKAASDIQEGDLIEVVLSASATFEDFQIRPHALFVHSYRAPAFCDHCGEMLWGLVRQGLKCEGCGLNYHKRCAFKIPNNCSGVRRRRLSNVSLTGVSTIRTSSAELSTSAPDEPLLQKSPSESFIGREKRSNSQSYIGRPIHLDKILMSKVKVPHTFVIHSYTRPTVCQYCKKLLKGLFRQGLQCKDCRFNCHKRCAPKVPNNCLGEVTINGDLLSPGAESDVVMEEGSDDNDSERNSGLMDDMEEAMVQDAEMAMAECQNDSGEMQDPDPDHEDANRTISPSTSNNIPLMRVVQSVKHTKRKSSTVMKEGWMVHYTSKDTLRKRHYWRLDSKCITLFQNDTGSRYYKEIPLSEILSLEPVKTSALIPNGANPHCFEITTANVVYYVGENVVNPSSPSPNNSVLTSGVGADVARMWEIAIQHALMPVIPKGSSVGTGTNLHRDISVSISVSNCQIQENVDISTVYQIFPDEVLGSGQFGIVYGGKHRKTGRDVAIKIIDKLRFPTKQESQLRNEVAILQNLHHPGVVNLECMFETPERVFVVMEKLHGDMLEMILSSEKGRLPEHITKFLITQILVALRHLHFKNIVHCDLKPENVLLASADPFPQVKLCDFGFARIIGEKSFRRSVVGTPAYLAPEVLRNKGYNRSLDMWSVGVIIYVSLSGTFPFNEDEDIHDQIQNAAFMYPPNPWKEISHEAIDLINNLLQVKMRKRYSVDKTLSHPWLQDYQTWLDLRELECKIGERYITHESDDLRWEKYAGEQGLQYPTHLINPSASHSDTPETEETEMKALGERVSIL
INS promoter inh cell count = further read-out of INS promoter inh, marked with its call; normalized cell count, %; measured here: cell count, toxicity; reference of the scale not given here;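 cells exposed to compound for 48 h; stained nuclei by imaging scaled within each plate; lower means fewer cells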
HSV augment primary fold = second read-out of HSV augment, no call of its own (marks repeat the call); fold increase; compound at 10 µM; measured here: primary screen fold increase 10 uM; tested in PC3 cells;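 GFP signal in the first replicate; 1 = infected wells without compound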
The depositor's hits bear a star; i = inactive; ? = inconclusive; . = no result given; [ ] = remark or other dose. Rows are unselected, and some 1.3% of all compounds hit somewhere here.

Sequence of screens: INS promoter inh | HSV augment primary fold | RGS16-Gao | PKD1 kinase inh | GALR2 ag | HSV augment | INS promoter inh cell count
CC(C)COC(=O)C1C2C=CC3(CN(C(C)c4ccc(Br)cc4)C(=O)C13)O2 (centres undefined)
    . | 1.4 | 100 | 12 | -0.7 | i | .
Cc1ccc(S(=O)(=O)N2CCOC2CNC(=O)C(=O)NCc2cccnc2)cc1 (centres undefined)
    17 | 0.97 | 97 | -8 | -1.6 | i | 102
COc1cccc(-c2cc(C(=O)Nc3cccnc3)no2)c1
    25 | 0.82 | 102 | -6 | -2.1 | i | 72
CN(C)S(=O)(=O)c1ccc(-c2csc(N/N=C/c3ccc(O)cc3)n2)cc1
    . | 0.56 | 97 | . | . | i | .
O=C(CSc1nccn1-c1ncc(C(F)(F)F)cc1Cl)c1ccc(Br)cc1
    19 | 1.1 | 103 | -4 | -1.8 | i | 120
Cn1cc(C(=O)N2CCc3ccccc32)cn1
    21 | 1.1 | 102 | 3 | 0.9 | i | 141
Cc1nc(C)c(-c2nnc(-c3ccccc3Cl)o2)cc1C(=O)NN
    . | 0.93 | 101 | . | . | i | .
CC(=O)Nc1ccc(NC(=O)CSc2nnc3c4ccccc4n(C)c3n2)cc1
    -18 | 0.87 | 109 | -7 | . | i | 165
Cc1c(-c2ccco2)[n+](=O)c2c(n1[O-])CCC2
    25 | 1 | 105 | -6 | 0.3 | i | 122
Cc1cc(C(=O)C(C)Sc2cccc[n+]2[O-])c(C)n1-c1ccc(Cl)cc1 (centres undefined)
    . | 0.98 | 104 | -6 | . | i | .
CC(=O)c1cccc(N(C(=O)Cn2nnc3ccccc32)C(C(=O)NCC2CCCO2)c2ccc(N3CCOCC3)cc2)c1 (centres undefined)
    -36 | 0.97 | 96 | -5 | . | i | 133
O=C(Cc1c(O)c2ccccc2[nH]c1=O)NCc1ccccc1
    -59 | 1.2 | 71 | 2 | -2.4 | i | 201
Cc1cc(N2CCN(c3ccccc3)CC2)nc(N2CCOCC2)n1
    . | 0.91 | 99 | . | . | i | .
CCOC(=O)C1(C)NC(c2ccc(OC)cc2OC)C2C(=O)N(CC)C(=O)C21 (centres undefined)
    33 | 1 | 102 | -5 | . | i | 93
Cc1ccsc1/C=N/n1c(-c2ccco2)n[nH]c1=S
    21 | 0.91 | 101 | 0 | -2.5 | i | 121
COc1ccc(Cl)cc1C(=O)NNC(=S)NC1CCCC1
    . | 1 | 104 | -2 | . | i | .
Cc1ccccc1N1CCN(c2ncnc3c2cnn3Cc2ccc(Cl)cc2)CC1
    -15 | 0.9 | 87 | -1 | 1.2 | i | 171
COc1ccc(/C=N/OCC(=O)NCC(C)C)c(OC)c1
    . | 1 | 107 | -4 | . | i | .
CC(C)c1nc2n[nH]c(N)c2c2c1CCC2
    54 | 0.97 | 99 | -3 | -0.6 | i | 74
CC(C)C(=O)Nc1ccc(C(=O)NNC(=O)CCc2ccccc2)cc1
    13 | 0.99 | 99 | -1 | -2.0 | i | 98
O=C1C(Cl)=C(N2CCOCC2)C(=O)N1CCc1ccccc1
    -32 | 0.63 | 103 | -15 | -1.6 | i | 254
O=C(COc1ccc(S(=O)(=O)NC2CCCCC2)cc1Cl)Nc1ccc2c(c1)OCO2
    -46 | 0.99 | 94 | -5 | -0.9 | i | 88
Cc1cc(=O)oc2cc(OC(C)C(=O)O)c(Cl)cc12 (centres undefined)
    . | 0.87 | 100 | 1 | -2.8 | i | .
CCOC(=O)c1[nH]c2ccc(F)cc2c1NC(=O)C1=COCCO1
    . | 0.92 | 93 | 0 | -0.3 | i | .
Cc1ccccc1Cc1ccc(Cl)nn1
    . | 0.95 | 96 | 7 | . | i | .
CSCc1cc(N2CCOCC2)nc(SCc2ccc(Cl)c(Cl)c2)n1
    -56 | 1.1 | 99 | 1 | 1.7 | i | 121
N#Cc1ccccc1S(=O)(=O)c1ccccc1C(=O)Nc1ccccc1
    -55 | 1.1 | 132 | -7 | . | i | 106
Cc1ccc(N(CC(O)CN2CCOCC2)S(=O)(=O)c2ccc3ccccc3c2)cc1 (centres undefined)
    . | 0.96 | 96 | -4 | -2.8 | i | .
O=C(NCCC1CC1(Cl)Cl)Nc1ccccc1 (centres undefined)
    . | 0.98 | 100 | . | . | i | .
NS(=O)(=O)c1ccc(CNC(=O)NC2(c3ccccc3)CC2)cc1
    . | 0.98 | 79 | 0 | -0.8 | i | .
COC(=O)c1ccc(NC(=S)NNC(=O)CC(C)C)cc1
    . | 1 | 113 | -9 | 0.1 | i | .
CC(=O)n1c(C=Nc2ccccc2)c(O)c2ccccc21
    . | 1.2 | 102 | -1 | . | i | .
Fc1cccc(F)c1/C=C/c1ccc2ccccc2n1
    -9 | 1.2 | 42 | -5 | -0.6 | i | 69
CN(C)c1ccc(N=c2sc3ccccc3n2C)cc1
    13 | 0.95 | 102 | 7 | -1.8 | i | 83
O=C(CC1C(=O)NCCN1CC(c1ccccc1)c1ccccc1)NC1CC1 (centres undefined)
    . | 1.1 | 104 | -1 | . | i | .
O=C1C(=O)c2ccc(-c3ccccc3)cc2-c2ccccc21
    45 | 0.41 | 259*[activator] | 0 | -3.7 | i | 116
CCCOC(=O)c1ccc(Oc2c(-c3ccc(OCC)cc3O)n[nH]c2C)cc1
    -29 | 1.1 | 98 | 2 | -2.7 | i | 69
O=C(NCCCCc1ccccc1)C1CC(c2ccccc2C(F)(F)F)=NO1 (centres undefined)
    . | 0.88 | 99 | . | . | i | .
CCN(CC(=O)NCc1ccc(F)cc1)Cc1nc2cc(Cl)ccc2c(=O)[nH]1
    -16 | 1 | 111 | 1 | -1.2 | i | 144
O=C(NCCOc1ccccc1F)c1cc(F)c(F)cc1Cl
    -44 | 0.92 | 99 | -7 | -0.9 | i | 132
COc1ccc(Cn2nnnc2C(c2cccs2)N2CCCCCC2)cc1 (centres undefined)
    -5 | 1.1 | 101 | 1 | 0.9 | i | 61
COc1ccc(NC(=O)C2C3C=CC(C3)C2C(=O)NCc2ccco2)cc1 (centres undefined)
    . | 0.89 | 95 | 2 | -0.7 | i | .
COc1ccc(S(=O)(=O)CCC(=O)O)cc1
    -240 | 0.85 | 99 | -6 | -1.6 | i | 51
CN=c1scc(-c2cccs2)n1/N=C/c1ccc(O)c(O)c1O
    . | 1.1 | 83 | 13 | 1.6 | i | .
O=C(NCCc1ccccc1)c1cc(=O)c2ccccc2o1
    6 | 0.99 | 98 | -2 | . | i | 114
CCCCCCNc1cc(C)oc(=O)c1C(C)=O
    57 | 0.98 | 109 | 1 | -3.4 | i | 112
COc1cc2c(cc1OC)C1=NC(=O)CN1C(SCc1ccccc1C)=N2
    14 | 0.82 | 99 | -8 | 1.7 | i | 93
Cn1c(CSc2ncccn2)nnc1SCC(=O)N1CCCCC1
    -39 | 1.1 | 107 | -7 | -1.7 | i | 131
CCOC(=O)/C=C1/N(C)c2ccccc2C1(C)C
    . | 1 | 95 | . | . | i | .
O=C(NC1CCCCC1)C(c1ccncc1)N(Cc1ccc2c(c1)OCO2)C(=O)C(F)(F)F (centres undefined)
    -277 | 0.94 | 97 | -16 | -2.3 | i | 49
c1ccc(Oc2nnc(-c3cccs3)c3ccccc23)cc1
    23 | 0.92 | 76 | -12 | -0.8 | i | 93
COc1cc(-c2cc(C(=O)Nc3ccc(N4CCOCC4)cc3)c3ccccc3n2)cc(OC)c1OC
    . | 0.8 | 106 | . | . | i | .
COc1ccccc1Nc1nc(C2(C)CCC(=O)O2)cs1 (centres undefined)
    -45 | 0.69 | 101 | 8 | -1.9 | i | 58
COCCNCCCCOc1ccc(C)cc1[N+](=O)[O-]
    -78 | 1 | 63 | 6 | -2.4 | i | 121
CCOc1ccc(CN2CCN(C3CCSCC3)CC2CCO)cc1 (centres undefined)
    . | 0.89 | 104 | -5 | . | i | .
COc1ccc(Cc2noc(CN(C)Cc3cccc(-n4cccn4)c3)n2)cc1OC
    . | 0.79 | 104 | -11 | . | i | .
CC(C)c1ccc(C(=O)CSc2ncn[nH]2)cc1
    . | 0.72 | 105 | -2 | -0.3 | i | .
Cc1nnc(SCc2cccc([N+](=O)[O-])c2)o1
    . | 0.95 | 103 | -8 | . | i | .
C=CCN=C1CC(C)(C)CC(=O)/C1=C(\O)c1ccccc1
    15 | 0.91 | 96 | 12 | -2.2 | i | 82
O=C(Nc1nnc(SCC(=O)N2CCOCC2)s1)c1ccccc1Cl
    . | 0.96 | 113 | -13 | -0.8 | i | .

(next part)
Sequence of screens: INS promoter inh | HSV augment primary fold | RGS16-Gao | PKD1 kinase inh | GALR2 ag | HSV augment | INS promoter inh cell count
CCC(C)C1C(C#N)=C(N)OC2=C1C(=O)CC(C)(C)C2 (centres undefined)
    . | 0.94 | 102 | -10 | -1.2 | i | .
COc1ccc(CC2(CO)CCN(Cc3cnn(-c4ccccc4)c3)CC2)cc1
    -31 | 0.9 | 23 | 13 | . | i | 80
COc1ccc(C(c2c(O)cc(C)oc2=O)c2c(O)cc(C)oc2=O)cc1
    -26 | 1 | 101 | -5 | -0.9 | i | 107
CCOC(=O)c1nc[nH]c1C
    -11 | 1.1 | 103 | 9 | -1.2 | i | 102
C=CCn1c(=O)c2ccccc2n2c(SCC(=O)c3ccccc3)nnc12
    . | 1 | 90 | -10 | -1.3 | i | .
S=C(NCc1ccco1)NC1CCCc2ccccc21 (centres undefined)
    . | 1 | 102 | 5 | . | i | .
CCCC(c1nnnn1Cc1ccc(OC)cc1)N1CCN(c2ccccc2)CC1 (centres undefined)
    . | 0.89 | 103 | 3 | -0.7 | i | .
CC(=O)Nc1ccc(S(=O)(=O)N2CCN(c3cc(C)nc4ncnn34)CC2)cc1
    -46 | 0.97 | 109 | -2 | . | i | 78
COc1cccc(C2=NOC(C(=O)Nc3cc(C)nn3-c3ccccc3)C2)c1OC (centres undefined)
    . | 0.71 | 97 | -4 | -0.8 | i | .
COc1ccc(C(=O)COC(=O)[C@H](C)Nc2ccc(C(F)(F)F)cc2[N+](=O)[O-])c(OC)c1
    21 | 1 | 98 | 4 | -1.5 | i | 49
COc1ccc(NC(=O)C2CSC3c4ccccc4C(=O)N23)cc1 (centres undefined)
    43 | 0.96 | 109 | -9 | -1.5 | i | 87
CC12COC3(C(=O)Nc4ccccc4F)CC1CCC32C (centres undefined)
    0 | 1 | 63 | -2 | . | i | 98
O=C(CSc1cnc2ccccc2n1)c1ccc(F)cc1
    -47 | . | 109 | -1 | -0.8 | ? | 105
COc1ccc(C(=O)NNC(=S)NC(=O)c2cccnc2)cc1
    43 | 1 | 131 | 3 | . | i | 94
CCCOc1ccc(NC(=O)CC2C(=O)N(C)C(=S)N2Cc2cccs2)cc1 (centres undefined)
    . | 0.76 | . | -5 | -2.4 | i | .
CCN(CC)Cc1oc(-c2ccccc2)cc1C(=O)O
    -14 | 1.1 | 107 | -7 | . | i | 98
COc1ccc(-n2c(=O)[nH]cc(C(=O)Nc3ccccc3)c2=O)cc1
    . | 0.92 | 96 | 7 | -1.1 | i | .
Cc1cc(=O)[nH]c(SC/C=C/c2ccccc2)n1
    65 | 0.71 | 107 | 3 | -2.1 | i | 75
COc1ccc(NS(=O)(=O)c2cc(C(=O)O)ccc2C)cc1
    . | 0.95 | 96 | -5 | 0.0 | i | .
COc1ccc(C(=O)c2oc3ccccc3c2NC(C)=O)cc1
    34 | 1 | 121 | 0 | 0.2 | i | 119
Cc1nnc(SCC(=O)c2c(N)n(Cc3ccccc3)c(=O)n(C)c2=O)n1C
    -127 | 1 | 111 | 2 | . | i | 6
Cc1cc(C)cc(C(=O)N2CCCCCC2)c1
    10 | 1.1 | 104 | -2 | -4.0 | i | 35
O=C1NCCC/C1=N/Nc1cc(F)ccc1F
    . | 0.99 | 102 | . | . | i | .
CS(=O)(=O)NN1C(=O)c2ccccc2NC1c1cccc(O)c1 (centres undefined)
    . | 0.88 | 100 | -6 | . | i | .
O=C1c2ccccc2S(=O)(=O)N1CC1CC(c2ccccc2Cl)=NO1 (centres undefined)
    7 | 0.92 | 102 | -5 | -2.4 | i | 85
O=C1CC(c2ccsc2)c2ccc3ccccc3c2N1 (centres undefined)
    . | 1 | 111 | -3 | . | i | .
NS(=O)(=O)c1ccc(CNC(=O)/C=C/c2cccc([N+](=O)[O-])c2)cc1
    . | 1.2 | 107 | . | . | i | .
Cc1cc(C)n(-c2nc3ccccc3nc2N2CCN(S(=O)(=O)c3ccc4ccccc4c3)CC2)n1
    -3 | 0.96 | 80 | -9 | -2.0 | i | 167
